Screening data: PubChem, National Center for Advancing Translational Sciences (NCATS)
miR-21 FLuc: qHTS Assay for Modulators of miRNAs and/orActivators of miR-21; 340,000 tested, under 10 active; HeLa miR-21 FLuc reporter, luciferase, 48 h; AID 2288, 2010; Potency, µM (series often up to 38.3 µM), for inactives: at the top dose reporter change, positive = more light; active = well fitted rising curve with a large enough effect; inconclusive = small, poorly fitted or top-dose-only effect; inactive = no such curve, though single readings can be large or run the other way;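 note: % of control where 0% means no effect; miR-21 action dims this reporter so a rising signal means less miR-21 action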
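HeLa cells stably expressing CMV-driven firefly luciferase with a downstream miR-21 binding sequence, endogenously expressing miR-21, were treated with titrations (up to about 40uM final) for 48 hours at 37 degree Celsius. Luciferase luminescence was read after lysis.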
Rango-impB inh: qHTS Assay for Inhibitors of Rango (Ran-regulated importin-beta cargo) - Importin beta complex formation. Importin subunit beta-1 (Homo sapiens), Q14974. Rango CFP/YFP FRET sensor + importin beta, 45 min. Potency, µM (titrated, usually from 92.2 µM), for inactives: top-dose inhibition of complex formation. hit rate 0.031% among 340,000. AID 540263, 2011; active = rising FRET ratio curve, often small or poorly fitted; inconclusive = mostly compound fluorescence or quenching in the first reads; inactive = flat curves in all reads;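 note: potency is the fitted concentration of half-maximal effect; 0% = DMSO wells and 100% = buffer wells lacking importin beta; nearly all actives have a fitted effect of over 15% in size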
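Inhibition scored from the CFP 486 nm/YFP 530 nm FRET ratio 45 min after adding 0.125 microM importin beta to 50 nM Rango biosensor preincubated 5 min with compound (room temperature, PBS with DTT, Tween-20, BSA). No-importin wells as positive control.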
Rango release inh: qHTS Assay for Inhibitors of RanGTP induced Rango (Ran-regulated importin-beta cargo) - Importin beta complex dissociation; hit rate 0.071% among 340,000; Snurportin-1 (Homo sapiens) + GTP-binding nuclear protein Ran (Homo sapiens) + Importin …; Biochemical FRET Rango-importin beta, RanGTP-induced dissociation; AID 540253, 2011; Potency, µM (doses to about 46.1 µM), for the others: at the highest dose activity change, negative = inhibition; active means falling FRET ratio curve, often poorly fitted, with flat reads before Ran was added; inconclusive means other falling curves, or compound fluorescence or quenching; inactive means flat or rising ratio curve;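 note: potency is the fitted concentration of half-maximal effect; % of control where 0% means no effect; nearly all actives have a fitted effect of over 45% in size; -100% = wells without RanGTP and RCC1; the record marks most hits as doubtful in a second field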
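FRET read at 45 min, room temperature: inhibitors block the CFP/YFP signal rise when RanGTP (0.6 uM Ran, 2 mM GTP, 0.2 uM RCC1) frees Rango (0.1 uM) from importin beta (0.25 uM). Pre-read after 5 min compound exposure flags interference.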
GLA inh pH 4.5: qHTS Assay for Inhibitors of Human alpha-Galactosidase at pH 4.5 | Alpha-galactosidase A (Homo sapiens), P06280 | purified enzyme, 4-MU-alpha-Gal fluorescence, pH 4.5 | activity change, negative = inhibition, % at 105 µM | 230,000 tested, under 10 active | AID 1467, 2008; inconclusive = small, poorly fitted or top-dose-only inhibition, or a rising curve; inactive = flat fitted curve, though single readings scatter; no compound was filed as active;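 note: 0% = full activity with enzyme and -100% = basal without enzyme; dose as in the result columns while the protocol names 77 µM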
Target sequence (P06280 whole entry, looked up): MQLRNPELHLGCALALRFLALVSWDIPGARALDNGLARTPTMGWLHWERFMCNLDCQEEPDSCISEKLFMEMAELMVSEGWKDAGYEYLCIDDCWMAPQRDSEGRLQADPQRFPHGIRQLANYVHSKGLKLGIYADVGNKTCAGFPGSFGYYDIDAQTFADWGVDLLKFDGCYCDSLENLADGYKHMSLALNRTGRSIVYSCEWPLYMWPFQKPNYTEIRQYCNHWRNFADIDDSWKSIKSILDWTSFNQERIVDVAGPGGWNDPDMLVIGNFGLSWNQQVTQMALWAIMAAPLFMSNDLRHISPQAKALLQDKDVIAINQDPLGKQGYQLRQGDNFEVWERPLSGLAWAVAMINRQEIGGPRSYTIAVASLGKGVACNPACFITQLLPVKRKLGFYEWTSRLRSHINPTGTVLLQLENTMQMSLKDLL
* marks the source's active call; other numbers are inactive results; ? = inconclusive; . = no result given; [ ] = dose if it differs, or a comment.

SMILES	miR-21 FLuc	Rango-impB inh	Rango release inh	GLA inh pH 4.5
COC(=O)Nc1c(-c2ccccc2)nc2ccc(Cl)cn12	-4%	-2.0%	14%	.
COc1cccc(N2CCN(S(=O)(=O)c3ccc4c(c3)CC(C)N4C(=O)C3CC3)CC2)c1 (centres undefined)	0%	-2.1%	5%	.
CN(c1ccccc1)c1ccc(/C=C/[N+](=O)[O-])cc1	?	2.4%	6%	-6
CCOC(=O)c1cnc2cc(-c3ccc(Cl)cc3)nn2c1N	-33%	-0.5%	-1%	-3
C=CCNC(=O)CC(C)C(CCCCC)C(=O)O (centres undefined)	-1%	0.3%	1%	0
CC(=O)c1cc(N2CCOCC2)ccc1[N+](=O)[O-]	-4%	3.8%	-3%	-4
Cc1cc(C)nc(SCC(=O)Nc2ccc(S(=O)(=O)N3CCCCC3)cc2)n1	1%	1.1%	17%	4
Cc1ccc(C(=O)Nc2ccc(C(=O)N3CCCCC3)cc2)o1	-31%	1.3%	-5%	.
COc1ccc(CNC(=S)NNC(=O)c2cc3ccccc3o2)cc1	-7%	1.6%	21%	.
CCN1C(=O)[C@@H]2[C@@H](c3ccc(SC4CCCCC4)cc3)N3CCCC[C@@]3(C(=O)OC)[C@@H]2C1=O	.	-0.1%	-5%	.
CN(C)C(=O)COC(=O)c1ccc(S(=O)(=O)NCc2ccco2)cc1	0%	-2.1%	-7%	-1
CSc1ccccc1NC(=O)NCCCl	0%	2.3%	17%	5
COc1ccc2sc(-c3ccccc3OC)c(-c3ccc(OC)nc3)c2c1	.	-0.1%	-3%	.
Cc1cccc(NS(=O)(=O)c2cc([N+](=O)[O-])ccc2C)n1	0%	0.0%	-8%	7
O=C(CSc1nc(=O)n2ccccc2n1)NCc1ccccc1	.	4.7%	-2%	.
CCOC(=O)C(=O)Nc1ccc(S(=O)(=O)Nc2ncccn2)cc1	-3%	2.4%	2%	7
O=C(CSc1nnc(-c2ccc(F)cc2)o1)Nc1ccc(S(=O)(=O)N2CCCC2)cc1	0%	4.5%	3%	4
Cc1ccc(NCC(=O)N/N=C/c2c[nH]c3ccccc23)cc1	1%	0.2%	15%	-21
CCOC(=O)C1(Cc2ccccc2C)CCCN(C(=O)COC)C1 (centres undefined)	-21%	-0.3%	-5%	.
COc1cccc(CNC(=O)CCC2CCCN(C(=O)C3CCOCC3)C2)c1 (centres undefined)	-5%	0.9%	18%	5
COc1ccc2[nH]c3c(c2c1)CCNC3c1ccc([N+](=O)[O-])o1 (centres undefined)	5%	?	?	.
COc1ccc(CN(CC2CCC(C(=O)O)CC2)C(=S)Nc2cc(C)ccc2C)cc1 (centres undefined)	-6%	-1.4%	-5%	7[21.1 µM]
Cc1cccc(NC(=O)CCC(=O)N/N=C/c2ccco2)c1	-9%	6.2%	-3%	5
CCCCCCCCCCCCCCCC(=O)NCCc1c[nH]c2ccccc12	0%	-0.2%	1%	5
COc1ccc(OC)c(C2CC(=O)Nc3n[nH]c(-c4ccccc4)c32)c1 (centres undefined)	0%	?	-3%	-5
C[C@H]1CN=C(Nc2ccccc2)N1CC1CCC1	2%	?	-18%	.
CC(C)N(Cc1cnn(C)c1)C(=O)C1CCC(=O)N(CCc2cccc(F)c2)C1 (centres undefined)	-14%	1.7%	2%	.
CN(C)CCCNc1oc(/C=C/c2cccs2)nc1S(=O)(=O)c1ccccc1	-6%	?	-23%	.
CS(=O)(=O)c1ccccc1-c1nc(-c2ccc([N+](=O)[O-])cc2)no1	2%	-1.4%	-17%	-7
CCOc1ccc(N2C(=O)C3=C(C(c4ccc(Cl)cc4)=NCCN3)C2c2cccnc2)cc1 (centres undefined)	-4%	3.8%	-14%	-1
NNc1nc(C(F)(F)F)nc2ccccc12	3%	-1.9%	-6%	0
N#CC(c1ccc(F)cc1)c1ccc(C(=O)c2ccccc2)cc1 (centres undefined)	2%	-0.9%	-7%	5
O=C(N/N=C/c1ccc(Sc2nc3ccccc3[nH]2)o1)c1ccncc1	-2%	4.9%	23%	2
COc1cccc(OCCCCCCN2CCOCC2)c1	-5%	0.0%	23%	-3
C=CCNC(=O)N1CCCC(N2CCN(c3ccccc3OC)CC2)C1 (centres undefined)	2%	?	?	.
CCOC(=O)c1c(/N=C/N(C)C)sc(/C=N/Nc2ccccc2)c1-c1ccccc1Cl	20%	?	?	-5
CCSc1nnc(NC(=O)Cc2ccc(OC)c(OC)c2)s1	-3%	0.0%	0%	2
C=CCOc1ccc2c3c(c(=O)oc2c1)CCCC3	.	6.3%	0%	.
O=C(/C=C/c1ccc([N+](=O)[O-])s1)N1CCCCC1	29%	-5.9%	-24%	-11
O=C1S/C(=C/c2ccc(N3CCOCC3)o2)C(=O)N1Cc1ccc(F)cc1	-3%	?	?	5

6 records picked at random from those above, as already listed:
SMILES	miR-21 FLuc	Rango-impB inh	Rango release inh	GLA inh pH 4.5
CC(C)N(Cc1cnn(C)c1)C(=O)C1CCC(=O)N(CCc2cccc(F)c2)C1 (centres undefined)	-14%	1.7%	2%	.
C[C@H]1CN=C(Nc2ccccc2)N1CC1CCC1	2%	?	-18%	.
CS(=O)(=O)c1ccccc1-c1nc(-c2ccc([N+](=O)[O-])cc2)no1	2%	-1.4%	-17%	-7
COc1cccc(OCCCCCCN2CCOCC2)c1	-5%	0.0%	23%	-3
O=C(/C=C/c1ccc([N+](=O)[O-])s1)N1CCCCC1	29%	-5.9%	-24%	-11
N#CC(c1ccc(F)cc1)c1ccc(C(=O)c2ccccc2)cc1 (centres undefined)	2%	-0.9%	-7%	5

Next structures
SMILES	miR-21 FLuc	Rango-impB inh	Rango release inh	GLA inh pH 4.5
COc1ccc2c(c1OC)C(=O)N1c3ccccc3C(=O)N(c3ccccc3F)C21 (centres undefined)	18%	-1.7%	1%	1
Cc1ccc(OCCN(C)C(=O)C2CCC(=O)N(CCCN3CCOCC3)C2)cc1 (centres undefined)	0%	-2.9%	2%	.
O=[N+]([O-])c1cccc(Nc2c3ccccc3nc3ccccc23)c1	-12%	?	?	?
COc1cc(-c2[nH]ncc2CN2CCN(c3cccc(C)n3)CC2)cc(OC)c1OC	13%	1.8%	28%	3
Cc1ccc(Nc2nc3ccccc3nc2Nc2c(C)n(C)n(-c3ccccc3)c2=O)cc1	-4%	0.1%	-3%	-29
O=C(O)Cn1nnc(COc2ccccc2)n1	-1%	7.1%	-3%	.
Cc1ccc(C(=O)NC2CCC(C)CC2)s1 (centres undefined)	.	-0.1%	1%	.
Cc1ccc(-c2nnnn2-c2ccc(C)cc2)cc1	-23%	-2.0%	5%	-3
Cc1ccc(NC(=O)CN2CCc3ccccc3C2)cc1S(=O)(=O)N(C)C	-1%	4.7%	-9%	0
O=C(CSc1nnc(CNC(=O)c2c(F)cccc2Cl)o1)c1ccccc1	-4%	2.2%	-15%	1
CC(C)(C)c1nnc(NC(=O)C2c3ccccc3Oc3ccccc32)s1	2%	4.2%	10%	-4
O=C(CS(=O)CC(=O)NC12CC3CC(CC(C3)C1)C2)Nc1ccc(F)cc1 (centres undefined)	-5%	1.2%	-5%	.
O=C(CSc1nc2nn(-c3ccccc3)c(=O)c-2c2n1CCCCC2)Nc1ccc(F)cc1F	.	4.1%	0%	.
NC(=O)c1ccsc1NC(=O)c1nc(-c2ccccc2)n(-c2ccccc2)n1	10%	5.8%	-12%	5
Cn1c(NNC(=O)c2ccc(C(C)(C)C)cc2)cc(=O)n(C)c1=O	-11%	?	?	0
CCc1nnc(NC(=O)CCc2ccccc2OC)s1	-6%	-1.8%	-3%	.
COC(=O)c1c(NC(=O)C(=O)NCCCN2CCOCC2)sc2c1CC(C)(C)OC2	-11%	-0.1%	-16%	.
Cc1cc(C)c(S(=O)(=O)N(CC(=O)O)CC(=O)O)c(C)c1	0%	2.5%	11%	4
CN(C)S(=O)(=O)NCCNC(=O)c1cc(OCC(F)(F)F)ccc1OCC(F)(F)F	-5%	-4.0%	-15%	-1
NC(=O)CSc1nnc(-c2ccco2)n1-c1ccccc1	-3%	-1.1%	-3%	.
Cn1c(CCN2CCCCC2)nc2cc(NS(=O)(=O)c3ccccc3)ccc21	4%	0.8%	-17%	2
O=[N+]([O-])c1ccc(-[n+]2ccc3ccccc3c2)c([N+](=O)[O-])c1	.	5.4%	?	.
c1ccc(-c2cn(C[C@H]3CC[C@@H]([C@@H]4CC[C@H](Cn5cc(-c6ccccc6)nn5)O4)O3)nn2)cc1	0%	-6.7%	-2%	.
CCOC(=O)c1c(C)[nH]c(C)c1S(=O)(=O)NCc1ccccc1OCC	-3%	0.6%	8%	.
COc1cc(OC)cc(-c2nnc(SCC(=O)N(Cc3ccccc3)C(C)(C)C)o2)c1	12%	-0.2%	-6%	-3
COC(=O)c1ccc(C(=O)OC)c(NC(=O)CN2CCCCC2)c1	2%	2.6%	-1%	3
COc1ccc(CNC(=O)C(=O)NCc2cccnc2)cc1	2%	-1.3%	6%	3
Cc1ccc(NC(=O)CCNC(=O)c2ccccc2)cc1F	-11%	0.2%	0%	.
CN(Cc1nccs1)C(=O)C1CCC(=O)N(CCc2ccc(Cl)cc2)C1 (centres undefined)	0%	-0.4%	5%	.
O=C(CCn1c(=O)oc2ccccc21)NCCN1CCc2ccccc2C1	-5%	-0.3%	15%	-18
Cc1cc(C(=O)CSc2nnc(CCC(N)=O)n2C)c(C)n1C1CC1	.	1.9%	30%	.
NC(=O)CC(NC(=O)Cc1ccc(Br)cc1)c1ccc(N2CCN(c3ccccn3)CC2)c([N+](=O)[O-])c1 (centres undefined)	5%	-3.0%	2%	.
C[C@H](NC(=O)C1CCN(S(=O)(=O)c2ccccc2)CC1)C(=O)NCc1ccc(F)cc1	3%	0.1%	0%	.
C/C(=N\NC(=O)c1ccc(N(C)C)cc1)c1ccc(C)c(C)c1	-30%	0.1%	-7%	3
CCOc1ccc(CCNC(=O)CCOc2cc(C)ccc2C)cc1OCC	-3%	-0.5%	8%	.
Cc1csc(=O)n1CC(=O)OCC(=O)Nc1ccc(F)c(F)c1	.	-2.3%	6%	.
CCOC(=O)CSc1nc2ccccc2n1CC(=O)N1CCN(c2ccccc2)CC1	0%	2.7%	-6%	-2
N#Cc1ccsc1NC(=O)CSc1nncs1	.	2.8%	-10%	.
O=S(=O)(Nc1ccc(Cc2ccncc2)cc1)c1ccc(Br)s1	-1%	0.3%	-3%	0
Cc1ccc2cccc(Oc3ncnc4sc(C)c(C)c34)c2n1	-4%	0.5%	-15%	-3
O=C(NCCCN1CCOCC1)c1ccc(CS(=O)(=O)Cc2ccccc2Cl)o1	-3%	-3.3%	0%	-6
COc1cccc(NC(=O)C(C)OC(=O)CCCNC(=O)c2ccc(Cl)cc2)c1 (centres undefined)	-24%	2.7%	4%	.
O=C(COC(=O)/C=C/c1ccco1)NCCN1C(=O)CSC1=O	.	0.8%	-3%	.
O=C1c2ccccc2C(=O)N1CSc1nnc(Nc2ccccc2)s1	-4%	0.9%	1%	6
O=C(NCCc1ccc(Cl)cc1)c1cc(-c2ccccn2)nc2ccccc12	-1%	0.5%	7%	.
Cc1ccc(-c2noc(CCC(=O)N3CCN(c4cc(C)ccc4C)CC3)n2)cc1	.	0.2%	-2%	.
Oc1ccccc1CN1CCN(C(O)(c2ccccc2)c2ccccc2)CC1	10%	0.5%	-2%	.
Cc1ccc(NS(=O)(=O)c2ccc3c(c2)CCC(=O)N3)cc1	.	0.9%	-12%	.
COc1ccc(C(=O)NC(=S)N(C)C2CCCCC2)cc1Br	-3%	-1.0%	35%	.
O=C(CCS(=O)(=O)c1cccs1)Nc1ccc(C(=O)NCc2ccccc2)cc1	-5%	0.1%	16%	2

These rows are one share of the data. The share of hits here may be higher or lower than overall.
